# Vaccinia mCherry: inhibitors of vaccinia virus infection (mCherry reporter signal) | 310,000 compounds, 0.63% hits | Potency, µM (highest dose often 36.5 µM), for inactives: top-dose activity change, negative = inhibition, usual class: inhibitors | Vaccinia virus mCherry reporter infection, fluorescence; about a quarter of the inactives have no number; active = well fitted inhibition curve with a large enough effect; inconclusive = small, poorly fitted or top-dose-only effect; inactive = no such curve, though single readings can be large or run the other way; tested in A549 cells; further: nearly all actives have a fitted effect of over 35% in size; inactives centre near -10
# VACV Venus inh: vaccinia inhibition (Venus reporter); 330,000 compounds, 0.46% hits; AID 720580; Vaccinia virus Venus reporter expression, fluorescence; Potency, µM (series often up to 36.5 µM), inactives show at the top dose activity change, negative = inhibition, usual class: inhibitors; active means well fitted inhibition curve with a large enough effect; inconclusive means small, poorly fitted or top-dose-only effect; inactive means no such curve, though single readings can be large or run the other way; tested in A549 cells; further: nearly all actives have a fitted effect of over 30% in size; inactives centre near -10
# An asterisk follows results filed as active; i = inactive; ? = inconclusive; . = no result given; & = joins results of further samples; [ ] = another dose, or the depositor's remark. On the % scale 0 is the no-effect control and ±100 the full control effect; potency means the concentration at half of the fitted maximal effect.
Compound	Vaccinia mCherry	VACV Venus inh
Cc1ccc(-c2cc(C(=O)OCn3nnc4ccccc4c3=O)c3ccccc3n2)cc1	-7.7%	-1.9%
CC(C)(C)c1ccc(C(=O)N2CCC3(CC2)NCCc2[nH]cnc23)cc1	-1.7%	-8.5%
Cc1ccccc1/C=N\NC(=O)c1ccccc1-n1cccc1	1.0%	-1.9%
Cc1ccnc(NC(=S)NC(=O)/C=C/c2ccccc2)c1	-14.3%	-2.7%
CCOC(=O)c1c(NC(NC(C)=O)C(Cl)(Cl)Cl)sc(C(C)=O)c1C (stereo not given)	.	?
Cc1ccn2c(c1)nc(=S)n2C(=O)c1ccccc1	-7.6%	-1.9%
OCCCNCc1ccc(Cl)cc1Cl	-18.1%	-0.8%
COc1cc(C(c2c(C)[nH][nH]c2=O)c2c(C)[nH][nH]c2=O)ccc1OS(=O)(=O)c1ccccc1	-10.3%	-8.7%
COCCN(CCOC)S(=O)(=O)c1ccc(C(=O)Nc2nnc(C3CC3)o2)cc1	-10.4%	-5.2%
O=C(COC(=O)C1CCN(c2ccc(C(F)(F)F)cn2)CC1)c1ccccc1Cl	-16.8%	-0.7%
O=c1[nH]c2ccccc2nc1NCc1ccccc1	i	-25.2%
Cc1c(/C=N/NC(=O)CNc2ccccc2)c2ccccn2c1C(=O)c1ccncc1	-8.6%	-6.9%
COc1ccc(N2CCN(CC(=O)Nc3sccc3C#N)CC2)cc1	-13.6%	-13.4%
CC(C)N1C(=O)C(=O)N(CC(=O)N2c3ccccc3NC(=O)CC2C)C1=O (stereo not given)	-9.9%	-10.7%
CCc1nc(SCC(=O)Nc2ccc(N(CC)CC)cc2)n[nH]1	-23.7%	-6.1%

# Next entries:
Compound	Vaccinia mCherry	VACV Venus inh
CCN(CC(=O)NCc1cccs1)C(=O)/C=C/c1cccc(Br)c1	-22.7%	-13.2%
COc1cccc(CNC(=O)c2ccc3c(c2)nnn3C2CCCC2)c1	-3.6%	-4.0%
N#Cc1ccccc1NC(=O)CNc1ccc(Cl)c(C(F)(F)F)c1	i	-13.0%
CCOc1ccc(NC2C=CS(=O)(=O)C2)cc1 (stereo not given)	-21.5%	-12.7%
COc1ccc(C=NCCC2(O)CC(C)N(C)CC2C)cc1 (stereo not given)	-2.9%	10.2%
CC(CCc1ccccc1)NC(=O)C1CCCN(c2nnc(-n3cccc3)s2)C1 (stereo not given)	-9.4%	-16.7%
CCOc1ccc(-c2noc(CCC(=O)NCC3CCCO3)n2)cc1OC (stereo not given)	-3.6%	3.5%
Cc1c(Nc2scc(-c3ccccc3)[n+]2-c2ccccc2)c(=O)n(-c2ccccc2)n1C	-7.9%	-4.1%
O=C(CCNC(=O)c1ccc([N+](=O)[O-])cc1)Nc1ccc(S(=O)(=O)N2CCOCC2)cc1	i	-14.5%
CN1C=Nc2c(ncn2C2CCC(CO)O2)C1O (stereo not given)	-0.3%	-5.2%
O=C(c1ccc(Cl)c(S(=O)(=O)N2CCCCCC2)c1)N1CCN(c2ccccn2)CC1	?	?
CCC1CCCCN1C(=O)Cn1c(=O)n(CC2CCC(C(=O)NC)CC2)c(=O)c2sccc21 (stereo not given)	-8.6%	-5.3%
COc1ccc(-c2cc(C)no2)cc1S(=O)(=O)N1CC(C)Oc2ccccc21 (stereo not given)	-27.2%	-10.2%
Cc1ccccc1Cn1c(SCc2ccc(C(=O)NC(C)c3ccccc3)cc2)nc2ccncc21 (stereo not given)	?	?
CC(CCc1ccccc1)NC(=O)COC(=O)c1ccc(S(C)(=O)=O)c([N+](=O)[O-])c1 (stereo not given)	?	?

# More structures
Compound	Vaccinia mCherry	VACV Venus inh
O=C(Nc1nnc([C@H]2C[C@H](O)[C@@H](CO)O2)s1)C(c1ccccc1)c1ccccc1	8.0%	6.5%
CN(CCc1ccccc1)C(=O)c1cccc(NC(=O)Cc2cccc(NC(=O)C3CCN(C(=O)c4ccccc4)CC3)c2)c1	i	-24.8%
Cc1ccc(OCC(=O)n2nc(C)cc2C)c(C)c1	-25.7%	-13.4%
Oc1ccccc1N1CCN(C(=S)Nc2ccc(SC(F)F)cc2)CC1	-18.8%	-14.8%
Cc1ccccc1OCC(=O)Nc1ccncc1	-8.6%	-15.2%
COc1ccc(C(=O)Nc2ccc(Cl)cc2C(=O)N2CCCC(C)C2)cc1OC (stereo not given)	-12.3%	-5.0%
Cc1nc(Cl)sc1C(=O)Nc1ccc(F)cc1	i	-16.7%
CCN(CC(=O)Nc1sc2c(c1C#N)CCC(C)C2)Cc1nc2ccccc2c(=O)[nH]1 (stereo not given)	-1.9%	-5.2%
O=C(NC1CCCCC1)Oc1ccccc1	-11.5%	-11.0%
Cn1ccc2c(-c3ccc(F)cc3)cc3c(c21)C1CCC3C1 (stereo not given)	i	-2.2%
CSc1nc(-c2ccco2)nn1C(=O)c1ccccc1Cl	-14.4%	8.0%
N/C(=N\OC(=O)c1ccccc1)C(Cc1ccccc1)C(=O)NOC(=O)c1ccccc1 (stereo not given)	i	-5.9%
Cc1cc(Cl)ccc1NC(=S)NCCCO	i	-9.8%
O=[N+]([O-])c1ccc(C2=NCCO2)cc1	-4.5%	-16.8%
CCOCC(=O)Nc1nc(C)cc(C)n1	i	-9.7%

# Carrying on:
Compound	Vaccinia mCherry	VACV Venus inh
CCN1CCN(C(=O)c2ccc3c(c2)N(Cc2cc(C)ccc2C)C(=O)c2ccccc2S3=O)CC1 (stereo not given)	-8.5%	-4.5%
CCCOc1ccc(F)cc1-c1cc(C(=O)NCc2ccco2)[nH]n1	-14.6%	-23.2%
Cc1nn(CC(=O)O)c2ccccc12	-8.5%	-1.4%
Cc1cccc(C(=O)NC(=S)N2CCN(C)CC2)c1	i	-10.1%
COc1ccc(NC(=O)C2=CC(c3ccc(C)cc3)=NS(=O)(=O)N2C)cc1OC	i	-10.9%
COc1ccccc1NC(=O)CCn1cnc2ccccc2c1=O	-6.0%	-14.5%
C[C@@H]1CN([C@H](C)CO)C(=O)c2c(c3ccccc3n2C)-c2ccccc2CO[C@H]1CN(C)Cc1ccc(C(F)(F)F)cc1	?	?
COc1ccc(NC(=O)CN2CCN(c3ccc(F)cc3)CC2)cc1Cl	.	-25.4%
N=c1oc2ccccc2cc1-c1nc2ccccc2c(=O)[nH]1	-9.1%	-18.9%
O=c1cc(-c2ccccc2)[nH]n2cnnc12	i	-14.6%
O=C(O)c1cc(NC2(c3ccccc3)C(=O)c3ccccc3C2=O)ccc1Cl	9.9%	7.0%
COc1ccc(C2Nc3ccc(NC(=O)CO)cc3C(=O)N2Cc2cccc(Cl)c2)cc1COc1ccc(NC(C)=O)cc1 (stereo not given)	-1.5%	-25.9%
CCOC(=O)CSc1nnc(COc2ccc3ccccc3c2)o1	i	-6.0%
Cc1ccccc1NC(=S)NCC(c1cccnc1)N1CCOCC1 (stereo not given)	-14.6%	-11.9%
O=C(CSc1nnc(COc2ccccc2F)n1-c1ccccc1)NCc1ccco1	.	-27.5%

# Next part.
Compound	Vaccinia mCherry	VACV Venus inh
Cc1cccc(C(C)C)c1NC(=O)COC(=O)COc1ccc2c(C)cc(=O)oc2c1	-8.7%	-3.6%
Cc1ccc(Cl)cc1NC(=O)C1CCN(c2nnc(C)c3c(C)n(-c4ccccc4)nc23)CC1	?	?
CCOc1ccc(NC(=O)Cc2c[nH]c3ccccc23)cc1	-1.9%	-5.4%
CC(=O)Nc1ccc(NC(=O)CCCN2C(=O)c3ccccc3C2=O)cc1	-7.1%	1.2%
COc1ccc(-c2cn3cccc(C)c3n2)cc1F	-19.5%	3.6%
CC(=O)c1nnn(-c2cccc([N+](=O)[O-])c2)c1C	-4.5%	2.7%
COc1cc(C(=O)Oc2ccccc2/C=N/NC(=O)c2ccc(C)cc2)cc(OC)c1OC	.	?
COc1ccc(-c2ccc(=O)n(CC(=O)Nc3ccc(OC)c(OC)c3)n2)cc1	-13.2%	0.4%
C=CCNC(=O)/C(C#N)=C/c1ccccc1Cl	-10.0%	-3.1%
CN(Cc1ccccc1)C(=O)C(=O)c1c[nH]c2ccccc12	-8.3%	-8.6%
CN1C(=O)[C@H]2[C@@H](C3CC3)N3C(=O)CN(Cc4ccccc4)C(=O)[C@@]3(C)[C@H]2C1=O	i	-0.8%
CCOc1ccccc1NC(=O)CN1CCc2ccccc2C1	-27.2%	-17.6%
Cc1cc2oc(=O)c(CC(=O)NCCCN(C)C)c(C)c2c2occ(C(C)(C)C)c12	12.6µM*	?
Cc1cccc(C(=O)Nc2nc(-c3nnn(-c4cc(C)ccc4C)c3C)ns2)c1	-23.4%[7.34 µM]	-25.1%[7.34 µM]
CNC(=S)N/N=C1\CC(c2ccccc2)Oc2ccccc21 (stereo not given)	-12.4%	-22.7%

# The list goes on:
Compound	Vaccinia mCherry	VACV Venus inh
Cn1c(SCC(=O)Nc2ccc3c(c2)OCO3)nnc1-c1cnccn1	.	-5.1%
CC1CCN(S(=O)(=O)c2cn(C)c(=O)n(C)c2=O)CC1	-23.9%	-8.2%
CC(=O)OCCCn1c(C)[n+](C)c2cc(Cl)c(Cl)cc21	-0.3%	-20.4%
CC(NC(=O)c1ccccc1)c1ccc(Br)cc1 (stereo not given)	-5.1%	0.0%
CC(=O)N1CCN(Cc2nc3cc(NS(C)(=O)=O)ccc3n2C)CC1	-9.1%	-1.4%
COc1ccc(C(=O)N2CCc3cc(OC)c(OC)cc3C2c2cccc([N+](=O)[O-])c2)cc1OC (stereo not given)	-7.4%	0.8%
CCOC(=O)N1N=C(CC)CC1(O)C(F)(F)F (stereo not given)	-10.7%	-6.4%
CCOC(=O)CCNCc1ccc(F)cc1	i	-3.0%
COc1ccc(C(=O)C2CCN(C(=S)NCCc3ccc(OC)c(OC)c3)CC2)cc1	i	-26.8%
CCC(C)OC(=O)C1=C(C)O[C@]23OC(N)=C(C#N)[C@]12C(=O)c1ccccc13 (stereo not given in full)	-23.7%	-15.6%
Cc1cc(C(=O)CN2C(=O)NC(C)(c3ccc(F)c(F)c3)C2=O)c(C)n1C1CC1 (stereo not given)	-14.0%	-21.1%
Cc1ccc(NC(=O)CN2CCCCCC2)c(Br)c1	-18.3%	-11.7%
COCCCn1c(C(=O)N2CCOCC2)cc2c(=O)n3cccc(C)c3nc21	-11.4%	-8.9%
CC(C)C[C@H]1CNC(=S)N1C[C@H]1CCCN1C[C@H](Cc1ccc(O)cc1)N1C[C@H](Cc2ccccc2)N(CCc2ccccc2)C1=S	8.0%	-17.5%
CSCCC(NC(=O)c1ccco1)C(=O)O (stereo not given)	.	-15.2%

# Carrying on.
Compound	Vaccinia mCherry	VACV Venus inh
CC(C)N(C(=O)COC(=O)CNC(=O)c1ccc(Br)cc1)c1ccccc1	-18.8%	-17.9%
CCC[C@@H]1C=C(C(=O)OCC)[C@H](c2ccccc2)N1S(=O)(=O)c1ccc(C)cc1	0.8%	-20.8%
O=C(O)CCn1cnc2onc(-c3ccccc3Cl)c2c1=O	-5.4%	-9.6%
CCOC(=O)c1c(NC(=O)Cn2nnc(-c3ccc(Cl)cc3)n2)sc(C)c1C	.	-14.4%
CCOc1ccc(N=Cc2c(O)n(CCc3ccc(OC)c(OC)c3)c(=O)[nH]c2=O)cc1	i	-6.7%
CC(=O)Cn1cnc2c(sc3nc(C)cc(C)c32)c1=O	-21.4%	9.0%
CCCC(=O)Nc1nnc(S(=O)(=O)N2CCCCCC2)s1	-9.8%	-11.5%&-14.0%
CCS(=O)(=O)NCc1ccc2c(c1)cc(C)n2C	-19.0%	2.2%
Cc1ccc(-c2cc3onc(-c4ccccc4)c3c(=O)n2C)cc1	-26.4%	?
CCc1ccc(C(O)(c2ccccc2OC)C(CN2CCOCC2)c2ccccc2)cc1 (stereo not given)	-17.2%	-8.9%
COc1ccc(C(=O)Nc2ccc(S(=O)(=O)Nc3ncccn3)cc2)cc1OC	-10.0%	-12.2%
C=CCNc1cccc(Br)c1	-14.4%	-4.6%
CCN(CC)S(=O)(=O)c1ccc(OC)c(NC(=O)c2ccc([N+](=O)[O-])cc2)c1	-8.5%	-3.5%
O=C(O)c1ccccc1C(=O)Nc1ccccc1[N+](=O)[O-]	i	-16.5%
CCOc1ccc(/C=N/NC(=O)C(=O)NCc2ccco2)cc1	-6.6%	-3.5%
CC1=C(C(=O)N(C(C)C)C(C)C)CC(CC(=O)NCc2cccc3ccccc23)C(=O)N1Cc1ccc(C(C)(C)C)cc1 (stereo not given)	-21.7%	-18.5%
COc1ccc(CC(=O)Nc2nc(C)cs2)cc1OC	?	?

# Compounds were not picked by outcome, and some 0.86% of all compounds hit somewhere here.
